# Cruzain inh noDet: inhibitors of Trypanosoma cruzi cruzain without detergent | purified cruzain, Z-FR-AMC fluorescence, no detergent | 200,000 compounds, 2.3% hits | P25779 | Potency, µM, for inactives: max response, negative = inhibition, actives largely listed as inhibitors; active = well fitted curve in the direction sought with a large enough effect; inconclusive = small, poorly fitted or top-dose-only effect, or another doubt; inactive = no such curve, though single readings can be large; an effect the other way counts as inactive or inconclusive;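 also: plate controls were enzyme without inhibitor for no effect and buffer without enzyme for full effect; nearly all actives have a fitted effect of over 40% in size; top concentration of the series not given in the record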
# Target sequence (P25779 123-467 limits assumed): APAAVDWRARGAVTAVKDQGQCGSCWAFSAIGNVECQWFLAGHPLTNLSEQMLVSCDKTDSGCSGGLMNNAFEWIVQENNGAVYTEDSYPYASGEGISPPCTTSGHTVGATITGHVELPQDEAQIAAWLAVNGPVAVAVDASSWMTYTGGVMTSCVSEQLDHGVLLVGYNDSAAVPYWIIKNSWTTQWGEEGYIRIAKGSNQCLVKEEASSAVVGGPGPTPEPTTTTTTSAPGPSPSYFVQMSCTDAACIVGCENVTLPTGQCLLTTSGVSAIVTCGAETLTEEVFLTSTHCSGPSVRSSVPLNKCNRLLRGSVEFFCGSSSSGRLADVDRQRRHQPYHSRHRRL
#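 Purified cruzain at 1.5 nM, pre-incubated 15 min with compound at room temperature in 100 mM sodium acetate pH 5.5, 5 mM DTT, 0.00005% Triton X-100. Reaction started with 2 uM Z-FR-AMC; AMC fluorescence increase over 60 s gives rate.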
# RE007 growth inh: less growth of the S. pombe RE007 Vpr strain. S. pombe RE007 Vpr strain, BacTiter-Glo ATP luminescence, 24 h; control for the full effect not named in the record. Potency, µM (top dose mostly 92.2 µM), without a hit: top-dose activity change, negative = less growth. 360,000 compounds, 0.21% hits; active = well fitted falling curve with a large enough effect; inconclusive = small, poorly fitted or top-dose-only effect; inactive = no such curve, though single readings can be large or run the other way;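 also: % is scaled to controls: 0 for no effect and ±100 for the full control effect; nearly all actives have a fitted effect of over 50% in size; the assay follows cell death caused by Vpr and the record does not say whether a fall means rescue or toxicity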
#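 Fission yeast RE007 carrying one integrated HIV-1 vpr copy, seeded at OD 0.01 in PMG+AL medium with 23 nL pinned compound. Grown 24 h at 30 degrees; viability read by BacTiter-Glo luminescence after 5 min.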
# SARS PLP yeast: inhibitors of SARS-CoV papain-like protease in yeast. S. cerevisiae expressing SARS-CoV PLpro, growth rescue; control for the full effect not named in the record. Potency, µM (series often up to 32.9 µM), inactives show at the top dose activity, positive = growth rescue. 330,000 compounds, 0.19% hits; also: 0% is about no effect; nearly all actives have a fitted effect of over 55% in size; growth read by luminescence after 48 h
# Marburg entry inh: Marburg virus entry inhibition. Marburg virus pseudotyped entry inhibition, cell reporter; control for the full effect not named in the record; about a third of the inactives were read at about 46 µM. Potency, µM (top dose mostly 37.8 µM), for the others: at the top dose activity change, negative = inhibition, hits mostly inhibitors. 300,000 compounds, 1.8% hits; active = well fitted inhibition curve with a large enough effect; inconclusive = small, poorly fitted or top-dose-only effect, or effect the other way; inactive = flat fitted curve, though single readings scatter; tested in HEK293 cells; about a fifth of its hits are not listed in these tables; also: % is scaled to controls: 0 for no effect and ±100 for the full control effect; luciferase read-out
# Cruzain inh Det: blocks cruzain activity in presence of Triton detergent. P25779. purified cruzain, Z-FR-AMC fluorescence, 0.01% Triton. Potency, µM, inactives show max response, negative = inhibition, most hits filed as inhibitors. 200,000 compounds, 0.43% hits. AID 1478; active = well fitted curve in the direction sought with a large enough effect; inconclusive = small, poorly fitted or top-dose-only effect, or another doubt; inactive = no such curve, though single readings can be large; an effect the other way counts as inactive or inconclusive;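 also: plate controls were neutral wells for no effect and buffer without enzyme for full effect; nearly all actives have a fitted effect of over 40% in size; top concentration of the series not given in the record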
#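 Compounds were screened in titration against cruzain (1.5 nM) with 0.01% Triton X-100 to counter colloidal aggregation. Activity was the AMC fluorescence increase over 60 s after adding 2 uM Z-FR-AMC at pH 5.5.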
# LASV entry inh: blocks Lassa virus binding to or entry into cells; Lassa virus pseudotype entry inhibition, cell reporter; control for the full effect not named in the record; Potency, µM (doses to about 37.9 µM), without a hit: top-dose activity change, negative = inhibition, most hits filed as inhibitors; 300,000 compounds, 1.2% hits; AID 540256; active means well fitted inhibition curve with a large enough effect; inconclusive means small, poorly fitted or top-dose-only effect, or effect the other way; inactive means flat fitted curve, though single readings scatter; tested in HEK293 cells; also: % is scaled to controls: 0 for no effect and ±100 for the full control effect; nearly all actives have a fitted effect of over 50% in size; luciferase read-out
# StopGo reporter: FMDV 2A StopGo reporter, luciferase signal. Potency, µM (top dose mostly 57.9 µM), inactives show at the highest dose signal change, negative = less light. 410,000 compounds, 1.2% hits. human cells with a luciferase reporter of 2A StopGo recoding; control for the full effect not named in the record. AID 1159524; active = well fitted falling curve with a large enough effect; inconclusive = small, poorly fitted or top-dose-only effect; inactive = no such curve, though single readings can be large or run the other way; tested in HEK293T cells; also: % is scaled to controls: 0 for no effect and ±100 for the full control effect; nearly all actives have a fitted effect of over 45% in size; luciferase light after 4 h
# NS1 function inh: blocks influenza NS1 protein function | AID 2326 | 270,000 compounds, 0.4% hits | Potency, µM (series often up to 46.1 µM), inactives show top-dose activity, positive = more growth | S. cerevisiae slowed by influenza A NS1, growth recovery by OD600; also: actives are rising curves; nearly all actives have a fitted effect of over 50% in size
#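 A cell-based growth assay was used: compounds that relieve NS1-induced slow growth of budding yeast raise OD600. Assay medium was yeast nitrogen base with ammonium sulphate and -URA supplement, pH 6.0, with 2% galactose.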
# Numbers without * were called inactive; u = inconclusive; x = no result given; & = joins results of further samples; [ ] = dose if it differs, or a comment. Unless noted, calls follow the shape of the dose curve; as a rule, active means well fitted rising curve with a large enough effect; inconclusive means small, poorly fitted or top-dose-only effect; inactive means no such curve, though single readings can be large or run the other way. Potency is read from the fitted curve at half-maximal effect. Not a hit list; about 4.8% have a hit in one of these screens.
SMILES,Cruzain inh noDet,RE007 growth inh,SARS PLP yeast,Marburg entry inh,Cruzain inh Det,LASV entry inh,StopGo reporter,NS1 function inh
CN(C(=O)c1ccc2c(c1)OCO2)C1(C)CCS(=O)(=O)C1 (stereo not given),x,2%,4%,19%[46.1 µM],x,17%,-16%,x
O=c1[nH][nH]c(-c2ccccc2)c1-c1ccccc1,x,7%,x,2%[46.1 µM],x,0%[46.1 µM],31%[activator],x
CC(C)CCNC(=O)c1ccc2nc(Cc3ccccc3)oc2c1,-2%,x,x,x,-3.9%,u,-3%,x
O=C(Nc1nnc(COc2ccccc2)s1)Nc1ccccc1F,x,1%,-2%,u,x,-14%[46.1 µM],4%,7%
C=CCn1c(SCc2nc3cc(C(=O)OC)ccc3c(=O)[nH]2)nc2sc(CC)cc2c1=O,u,-10%,12%,17%,-0.3%,18%,-24%,4%
CCOC(=O)CCC(=O)NCc1ccc2c(c1)cc(C)n2C,5%,3%,-1%,u,4.2%,8%,-9%,-8%
COc1cc(SC#N)ccc1N=Cc1c(C)[nH]n(-c2ccc(C)cc2)c1=O,-18%,u,-52%,u,-3.4%,u,u,1%
Cc1cc(C)cc(N(C(=O)c2ccco2)C(C(=O)NC2CCCC2)c2ccncc2)c1 (stereo not given),x,3%,2%,4%[46.1 µM],x,-10%,-5%,-14%
Cc1ccc(-n2nc(C(=O)O)nc2-c2ccccc2)cc1,-11%,-5%,-1%,u,3.2%,8%,3%,7%
O=C(CCN1CCN(c2ccccc2)CC1)Nc1ccc(OCc2ccccc2)cc1,u,-11%,10%,1%,4.3%,-21%,5%,0%
Clc1ccc(C2=NNC(=NCc3ccc4c(c3)OCO4)SC2)cc1,u,19%,20%,13µM*,-24%,u,8%,u
O=C1OCC/C1=C\c1ccccc1O,1%,2%,-1%,0%,-6.0%,4%,-15%,5%
CCC(=O)c1ccc(OCC(O)CN(C)C2CCCCC2)cc1 (stereo not given),12%,-7%,-1%,u,1.5%,2%,0%,-2%
CCCn1c(=O)c(C(=O)Nc2ncccc2O)c(O)c2ccccc21,x,-10%,6%,4%,x,-5%,-21%,-11%
C=CCc1c(C)[nH]c2c(OC)cccc2c1=S,x,0%,-3%,9%[46.1 µM],x,-8%,-25%,0%
Cc1ccc(Nc2nnc(SCC3CCCCO3)s2)cc1 (stereo not given),1%,-25%,-36%,30%,-3.6%,-19%,15%,-8%
COC(=O)/C(=C\c1ccc([N+](=O)[O-])cc1)NC(=O)c1ccccc1,x,-6%,x,1%[46.1 µM],x,-19%[46.1 µM],-2%,x
O=C(/C=C/c1ccco1)NC(=S)Nc1ccccc1,x,u,-6%,x,x,x,57%[activator],10%
N#CC1=C(N)Oc2cc(O)c(Cl)cc2C1c1cccnc1 (stereo not given),x,16%,2%,x,x,x,-16%,28%
CCN(CC)C(=O)C1CCCN(Cc2nc(-c3cccs3)no2)C1 (stereo not given),x,3%,0%,6%[46.1 µM],x,5%[46.1 µM],-6%,-1%
O=C(CCN1CCCCCC1)Nc1cccc(Cl)c1,0%,7%,-5%,-24%,3.9%,-16%,3%,2%
O=Cc1cn(CCC(=O)O)nc1-c1cccc(Br)c1,x,13%,0%,3%[46.1 µM],x,0%[46.1 µM],-14%,2%
CCOC(=O)N1CCC(N2Cc3cccc(C(=O)NC(C)c4ccc5c(c4)OCCO5)c3C2=O)CC1 (stereo not given),u,10%,3%,-6%,-6.2%,x,-6%,-19%
CCOCCn1ccc2c(OCC(=O)NCc3ccccc3)cccc2c1=O,x,8%,-6%,-1%,x,u,-13%,x
COC(=O)C(=C/C(C)=C/c1cccs1)C(=O)OC,x,-16%,-3%,u,x,u,28µM*,-68%

# The listing continues:
SMILES,Cruzain inh noDet,RE007 growth inh,SARS PLP yeast,Marburg entry inh,Cruzain inh Det,LASV entry inh,StopGo reporter,NS1 function inh
CCOc1cc(C(=S)N2CCCC2)ccc1O,x,-19%,3%,-18%,x,-1%,8%,15%
COc1ccc(-c2cc(C(=O)N/N=C/c3ccc(OC)c(COCC(F)(F)C(F)F)c3)c3ccccc3n2)c(OC)c1,-17%,-21%,-3%,u,0.7%,-4%,-22%,u
O=C(c1ccco1)N1CCN(C(=O)c2ccccc2OC(=O)C23CC4CC(CC(C4)C2)C3)CC1,u,3%,5%,-1%,2.9%,u,-14%,-45%
C=CCn1c(O)c(C(C)=Nc2cccc(C(F)(F)F)c2)c(=O)[nH]c1=O,x,1%,1%,u,x,0%,-9%,0%
O=C1NC(=S)N/C1=C/c1cccc2ccccc12,x,-4%,-1%,0%,x,x,48%[activator],-2%
CC(CN1CCCCC1)OC(=O)c1ccc(Cl)cc1Cl (stereo not given),2%,-16%,-3%,-1%,2.2%,-8%,26%,-23%
Cc1ccc(C)c(OC(=O)c2cncc(Br)c2)c1,1%,-7%,-9%,8%,-1.7%,-17%,-21%,-12%
CC1Cc2ccccc2N1S(=O)(=O)c1cccs1 (stereo not given),10%,-13%,-2%,-16%,-1.2%,-10%,x,-14%
O=C(c1ccccc1NS(=O)(=O)c1cccc2cccnc12)N1CCOCC1,x,-13%,3%,-24%[46.1 µM],x,-17%[46.1 µM],2%,x
Cc1ccc(S(N)(=O)=O)cc1NC(=O)C1CC2CCC1C2 (stereo not given),8%,-15%,9%,16%,6.5%,0%,x,5%
Cc1cc(NC(=O)CSc2nnc(Nc3ccccc3)s2)no1,16µM*,1%,-5%,-2%,0.5%,4%,-6%,-4%
CCOC(=O)C(C)On1c(-c2cccc(Cl)c2)nc2ccc([N+](=O)[O-])cc21 (stereo not given),8%,-18%,-20%,-21%,-2.7%,u,-2%,-152%
CC1CCCC(N2CCN(C(=O)c3cccc(F)c3)CC2)C1 (stereo not given),3%,-7%,-5%,12%,8.8%,-8%,x,-13%
CCOc1ccc2cc(-c3nnc(Nc4ccc(C)cc4)s3)c(=O)oc2c1,6%,x,x,x,3.3%,18%[46.1 µM],-16%,x
CC(C)NC(=O)C1CCN(C2CCN(C(=O)/C=C/c3cccs3)CC2)CC1,x,4%,0%,-16%[46.1 µM],x,8%[46.1 µM],-9%,-2%
Cc1nc2sc3c(c2c(=O)[nH]1)CCCC3,4%,-26%,0%,x,0.1%,x,0%,-3%&-2%
O=Cc1ccc(O)c2ncccc12,x,u,-7%,u,x,u,-15%,-84%
CCCCc1ccc(/C(C)=N/Nc2cc(N3CCOCC3)nc(C)n2)cc1,x,-8%,-9%,x,x,x,-20%,-16%
COc1ccc(NC(=O)CN2C(=O)CCn3nc(-c4cccn4C)cc32)cc1,20%,x,x,x,-1.6%,5%[46.1 µM],5%,x
CC(C)c1ccc(S(=O)(=O)N2CCN(CC(=O)Nc3ccc4c(c3)OCO4)CC2)cc1,23%,7%,-8%,u,-2.1%,u,-3%,-60%
Cc1ccccc1OCc1nc2c3cnn(-c4ccccc4Br)c3ncn2n1,-17%,x,x,16%[46.1 µM],-0.3%,11%[46.1 µM],7%,x
COCc1cc(C)nc(SCC(=O)Nc2cccc(C)c2C)c1C#N,-14%,-7%,6%,-1%,-0.2%,-17%,x,8%
COc1ccc(CN2CCN(c3cccc(C)c3C)CC2)cc1OC,0%,7%[3.69 µM],17%,4%,1.4%,-2%,16%,2%
COc1cc(C(=O)N/N=c2/sc3ccccc3n2C)cc(OC)c1OC,-8%,-17%,-3%,11%[46.1 µM],1.7%,1%,3%,0%
O=C(c1ccc(F)cc1Cl)N(Cc1ccco1)C1CCS(=O)(=O)C1 (stereo not given),x,14%,-3%,6%,x,23%,-12%,x

# (more compounds)
SMILES,Cruzain inh noDet,RE007 growth inh,SARS PLP yeast,Marburg entry inh,Cruzain inh Det,LASV entry inh,StopGo reporter,NS1 function inh
CNC(=O)c1c(NC(=O)CCS(=O)(=O)c2ccc(C)cc2)sc2c1CCN(C(=O)OC)C2,x,0%,1%,3%,x,6%,17%,x
CCOc1cccc2cc(-c3nc(-c4ccc(Cl)cc4)c(C)s3)c(=O)oc12,-2%,x,x,x,2.8%,15%[46.1 µM],-19%,x
O=C(NC(=S)Nc1ccccc1O)c1ccccc1Cl,x,-2%,-3%,u,x,-27%,23%,-1%
Cc1cc(NS(=O)(=O)c2ccc(NC(=O)C(C)Oc3ccccc3Cl)cc2)no1 (stereo not given),x,-5%,2%,10%,x,-18%,38%[activator],x
Cc1[nH]n(-c2cccc(Cl)c2)c(=O)c1-c1ccccc1,-23%,-16%,-2%,1%[46.1 µM],-2.6%,4%,10%,-81%
CCCC1(CCC)NC(=O)N(CC(=O)N2CCc3ccccc32)C1=O,x,2%,-1%,13%,x,7%,-13%,x
CN(CC(=O)Nc1ccc(Cl)c(Cl)c1)Cc1nnc(-c2ccc(F)cc2)o1,x,14%,-4%,-23%[46.1 µM],x,-4%,-1%,x
CN(C)c1ccc(N=Nc2ccccc2C(=O)OCC(=O)NCC2CCCCC2)cc1,-8%,8%,-13%,u,-6.8%,-12%,-12%,15%
COc1ccccc1N1CCN(Cc2nc(N)nc(Nc3ccccc3)n2)CC1,10%,-12%,2%,u,-10%,-12%,u,-3%
O=C(NC1CC1)c1ccc2c(c1)C1C3CCC(C3)C1C(c1ccccc1)N2 (stereo not given),-25%,23%,-51%,6%,-5.1%,u,-27%,-7%
CCCCn1c(SCC(=O)Nc2sc3c(c2C(N)=O)CCC3)nnc1-c1ccccc1,x,-1%,x,-22%,x,-13%,u,x
O=C(NC(Cc1ccccc1)C(=O)O)/C(=C/c1ccc([N+](=O)[O-])cc1)NC(=O)c1ccc(Br)o1 (stereo not given),x,-18%,14%,25%[46.1 µM],x,0%,7%,u
O=C(Nc1c(-c2ccccc2)nc2ncccn12)c1cc2ccccc2oc1=O,6%,0%,9%,16%,-2.1%,0%,-23%,u
COc1ccc(-c2c[n+](CC(=O)OC3CC(C)CCC3C(C)C)c3n2CCC3)cc1 (stereo not given),x,-4%,-2%,x,x,x,13µM*,-6%
